LANA-H2A inh: blocks KSHV LANA binding to histone H2A/H2B | cell-free LANA-H2A/H2B peptide, fluorescence polarization | Q9QR71 | inhibition, % (no concentration beside the values) | 320,000 compounds, 0.6% hits; in the data active = inhibition mostly above about 10%, no sharp cut-off; inactive = mostly below about 6.7%;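 also: stock transfer was 7.5 nL into about 10 µL; 0% = median of vehicle wells and 100% = median of positive control wells; one replicate is shown; the record names a cut of 25% in any replicate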
Target sequence (Q9QR71 whole entry, looked up): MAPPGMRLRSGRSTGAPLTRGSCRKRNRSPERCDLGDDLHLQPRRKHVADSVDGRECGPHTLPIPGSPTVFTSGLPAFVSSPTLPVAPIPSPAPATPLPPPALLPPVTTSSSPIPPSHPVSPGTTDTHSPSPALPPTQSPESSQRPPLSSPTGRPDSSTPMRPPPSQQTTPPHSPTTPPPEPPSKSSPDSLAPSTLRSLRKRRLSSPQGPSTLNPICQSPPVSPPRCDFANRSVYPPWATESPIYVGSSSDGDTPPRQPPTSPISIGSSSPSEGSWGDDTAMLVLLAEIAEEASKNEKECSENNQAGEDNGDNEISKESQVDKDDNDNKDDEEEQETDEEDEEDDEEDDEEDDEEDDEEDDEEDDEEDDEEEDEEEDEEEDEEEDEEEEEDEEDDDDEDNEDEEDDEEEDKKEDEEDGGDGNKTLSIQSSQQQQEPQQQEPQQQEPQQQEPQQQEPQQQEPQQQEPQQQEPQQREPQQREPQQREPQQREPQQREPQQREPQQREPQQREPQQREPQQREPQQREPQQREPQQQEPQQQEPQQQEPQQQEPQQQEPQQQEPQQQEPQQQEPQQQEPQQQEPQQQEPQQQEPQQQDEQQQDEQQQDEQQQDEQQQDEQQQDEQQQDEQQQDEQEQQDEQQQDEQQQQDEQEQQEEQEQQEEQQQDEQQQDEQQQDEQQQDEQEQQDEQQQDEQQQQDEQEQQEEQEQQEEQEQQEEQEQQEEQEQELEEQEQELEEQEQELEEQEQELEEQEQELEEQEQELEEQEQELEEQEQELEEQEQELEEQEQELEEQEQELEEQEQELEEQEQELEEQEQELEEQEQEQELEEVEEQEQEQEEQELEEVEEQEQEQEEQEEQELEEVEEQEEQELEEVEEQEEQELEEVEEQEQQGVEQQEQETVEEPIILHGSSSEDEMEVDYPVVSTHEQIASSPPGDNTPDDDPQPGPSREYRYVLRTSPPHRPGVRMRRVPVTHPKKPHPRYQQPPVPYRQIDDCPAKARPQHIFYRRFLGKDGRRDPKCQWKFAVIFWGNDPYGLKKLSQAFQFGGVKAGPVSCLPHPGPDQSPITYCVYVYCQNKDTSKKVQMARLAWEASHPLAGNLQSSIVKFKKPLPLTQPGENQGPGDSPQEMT
Calb FLC: C. albicans growth modulation with fluconazole | growth inhibition, % (concentration not given with the values) | 300,000 compounds, 0.57% hits | C. albicans CaCi-2 (fluconazole-resistant clinical isolate) + fluconazole, Alamar Blue growth, 48 h | AID 1979;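 active = most replicates above 75%; inconclusive = exactly half above 75%; inactive = most below 75%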;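 also: all wells also contain fluconazole at 8 µg/ml as a sub-toxic cotreatment; 0% = median of DMSO wells and 100% = median of geldanamycin control wells; wells of about 8 µL received 7.5 nL stock; the first replicate is given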
Beta apoptosis: beta cell apoptosis inhibition; INS-1E cytokine-induced death, ATP luminescence, 48 h; percent of positive-control rescue, neutral wells zero; protection from apoptosis, % (concentration not given with the values); 300,000 compounds, 0.8% hits;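 active = all replicates at 75% or more, or half of them and the mean; inconclusive = half reach 75% but not the mean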;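 also: 0% = cytokine-treated negative control wells and 100% = positive control rescue; higher means more ATP so stronger rescue from cytokine killing; wells of about 40 µL received 100 nL stock; the first replicate is given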
Beta2AR agonist: human beta-2 adrenergic receptor agonism by FAP | P07550 | Am2.2-beta2AR cells, FAP receptor internalization, flow cytometry; reference of the scale not given here | response, % (no concentration beside the values) | 340,000 compounds, 0.43% hits | AID 504454;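 active = response above a set limit, near 3 SD of response in nonfluorescent compounds, cut at about 42% in these data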;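 also: stock transfer was 100 nL into about 11 µL; a reference agonist was the positive control; negative values mostly stem from fluorescent compounds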
ALR inh: inhibitors of human sulfhydryl oxidase ALR; 290,000 compounds, 3.8% hits; inhibition, % (test concentration not listed); purified ALR, DTT oxidation, H2O2 HRP-luminol luminescence; AID 485317; P55789;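 active = mean and each replicate at 75% or more; inconclusive = only one of the two met; inactive = neither met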;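 also: stock transfer was 7.5 nL into about 7.5 µL; 0% = neutral wells and 100% = wells with inactivated enzyme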
rRNA inh HTS: inhibits bacterial ribosomal RNA function over humanized ribosomes; E. coli WT GFP vs humanized-ribosome RFP mutants, fluorescence, 24 h; active compounds read low; DMSO median 0, no signal -100; GFP signal change (wild-type ribosome), % (test concentration not listed); 350,000 compounds, 1.6% hits; AID 720706;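 active = significant combined selectivity score with lowered wild-type GFP, culture density cut under 30%, mutant RFP and density less affected; inactive = any of these conditions unmet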; also: one replicate is shown; some compounds called inactive have numbers as strong as hits
T cruzi inh: blocks replication of Trypanosoma cruzi. 300,000 compounds, 1.4% hits. T. cruzi beta-gal in NIH3T3, luminescence, 90 h. AID 1885. inhibition, % (concentration not given with the values);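 active = mean inhibition across valid replicates above about 55%, limit read from the data; inconclusive = mean below that limit but half or more replicates reach it; inactive = mean below it, under half of replicates reach it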;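 also: signal also drops with host cell toxicity which is not excluded here; 0% = plate median of DMSO wells and 100% = zero luminescence signal; higher percent means less beta-gal luminescence so fewer parasites; stock transfer was 50 nL into about 50 µL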
Bfl-1 A1 inh: inhibitors of the anti-apoptotic protein A1, read as caspase activation | MEF A1-2A-BIM cells, Caspase-Glo 3/7 luminescence, 3 h; percent of clofoctol response, vehicle zero | caspase activation, % (no concentration beside the values) | 330,000 compounds, 0.066% hits | AID 2462;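 active = over half of replicate activation scores above 10%, or exactly half above 10 with the replicate mean above 10; inconclusive = replicate mean below 10 yet half the replicates above 10; inactive = over half of replicates below 10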;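 also: wells of about 30 µL received 50 nL stock; many hits fall short of the cut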
rRNA inh HTS OD600: also measured in rRNA inh HTS; calls as there; OD600 change, %; measured here: OD600 growth;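 optical density of the mix in the first replicate; 0 = DMSO median and -100 = no signal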
rRNA inh HTS RFP: also measured in rRNA inh HTS; calls as there; RFP signal change, %; measured here: RFP humanized mutant strains;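 first replicate; 0 = DMSO median and -100 = no signal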
The depositor's hits bear a star; u = inconclusive; x = not tested or not shown. Not all compounds are listed, so the mix of outcomes need not match the whole.

SMILES	LANA-H2A inh	Calb FLC	Beta apoptosis	Beta2AR agonist	ALR inh	rRNA inh HTS	rRNA inh HTS OD600	rRNA inh HTS RFP	T cruzi inh	Bfl-1 A1 inh
CCOC(=O)c1n[nH]n2c1nc(=O)c1ccccc12	0.0	-4	2	21	5	8	-1	4.1	-5	-0.7
O=C(COC(=O)c1cccnc1Cl)NC12CC3CC(CC(C3)C1)C2	-6.9	x	-2	-6	x	0	-12	0.9	x	0.1
N#Cc1ccc(-c2ccc(F)cc2)nc1Oc1ccccc1	0.4	-5	-2	-1	-24	x	x	x	13	-0.4
COc1ccc(OC)c(-n2c(-c3ccc(S(C)(=O)=O)cc3)cc(C=O)c2C)c1	-3.1	-3	-4	28	-14	x	x	x	9	0.9
COCCNC(=S)NCc1cccs1	4.1	-3	-3	-3	-28	7	6	-7.1	-14	0.2
O=C(NCc1ccccn1)c1cccc(NS(=O)(=O)c2ccccc2F)c1	1.0	18	-4	4	-1	x	x	x	-1	0.2
O=[N+]([O-])c1ccccc1S(=O)(=O)NCCSCc1ccco1	-0.3	x	-4	0	-10	x	x	x	x	-1.0
COc1ccc(OCCCC(=O)NCC(C)C)cc1	-1.4	-6	-2	5	-4	x	x	x	-10	-0.3
COc1ccc(CCNC(=O)C2CCCN(S(=O)(=O)c3cnc[nH]3)C2)cc1OC (centres undefined)	5.2	-4	x	3	53	4	5	6.7	0	u
COc1ccc(C(=O)NCc2oc(-c3ccccc3)cc2C(=O)O)cc1	-7.2	-2	-4	7	8	-24*	-16*	2.1*	-5	1.3
CC1CCN(C(=O)CCN2C(=O)C3C4C=CC(C4)C3C2=O)CC1 (centres undefined)	-0.8	-1	-4	1	0	8	11	1.1	-3	1.5
COc1ccc2nccc(C(N)=O)c2c1	3.1	4	-5	5	-5	6	9	-8.6	-3	0.6
CC1CCc2cc(F)ccc2N1C(=O)CCC(=O)O (centres undefined)	-12	0	0	3	-2	x	x	x	-5	0.6
CCOC(=O)c1sc(NC(=S)NC(=O)C2CC2)cc1C	0.9	2	3	0	-2	2	5	-0.7	18	0.3
COC(=O)c1cn(C(=O)c2ccccc2Cl)c2ccccc12	7.8	4	-5	7	x	-11	-2	-2.4	-2	0.6
COc1cc(C(=O)NNC(=O)/C=C/c2ccccc2)cc(OC)c1OC	-2.9	x	4	23	-4	-6	1	3.3	x	-0.7
CC(=O)c1c(C)nc(-c2ccc(OCC(=O)Nc3ccccc3)cc2)n1O	1.7	-9	6	-1	x	-11	2	-1.5	6	-1.1
CCN(CCNC(=O)C1CCCN(c2ncnc3c2nc2n3CCCCC2)C1)Cc1ccccc1 (centres undefined)	-2.4	0	4	-11	-3	-6	-13	0.7	33	-0.1
CCO[C@@H]1OC(C(=O)O)=C[C@H](c2csc3ccccc23)[C@H]1CCCO	5.5	9	x	2	2	20	16	-4.5	-15	-1.4
O=C1C2CC=CCC2C(=O)N1c1ccc(NCCc2ccc(Cl)cc2)c([N+](=O)[O-])c1 (centres undefined)	10	-4	1	12	-1	1	-6	-0.3	14	-0.2
O=C(Nc1ccccc1F)n1ncc2cc(Cl)ccc21	-2.6	-3	-6	1	-3	-3	4	-3.7	-4	-0.7
Cc1cc(Br)c(Cl)cc1NC(=O)CN1C(=O)C2C3CC(c4ccccc4)C(C3)C2C1=O (centres undefined)	-0.3	-1	1	-1	3	x	x	x	56*	-0.2
CCC(C)NC(=O)CNC(=O)Cn1c(C)cc2ccccc2c1=O (centres undefined)	-1.5	2	x	-2	-4	x	x	x	-5	-0.2
COc1ccc(/C=C/C(=O)NC(=S)NNC(=O)Cc2cccs2)cc1OC	-1.9	2	7	13	-62	x	x	x	-23	-0.2
CN(C)S(=O)(=O)N1CCN(c2cc(Cl)ccc2Cl)CC1	2.3	2	6	-7	0	x	x	x	0	0.8

More results
SMILES	LANA-H2A inh	Calb FLC	Beta apoptosis	Beta2AR agonist	ALR inh	rRNA inh HTS	rRNA inh HTS OD600	rRNA inh HTS RFP	T cruzi inh	Bfl-1 A1 inh
CCC(N)C12CC3CC(CC(O)(C3)C1)C2 (centres undefined)	3.6	1	-3	1	2	x	x	x	-8	1.4
CNS(=O)(=O)c1cccc(C(=O)OCC(=O)N2CC(C)OC(C)C2)c1 (centres undefined)	-5.6	-6	1	-3	-1	0	3	-0.2	-7	0.2
Cc1ccc(-n2nc(C(=O)NCc3ccc(C)o3)c3c4ccccc4n(C)c3c2=O)cc1	2.9	-23	6	2	-3	x	x	x	10	1.1
O=C(N1CCN(c2ccccc2F)CC1)C12CC3CC(CC(C3)C1)C2	-1.4	-10	5	-7	-2	x	x	x	9	-0.1
Cc1ccccc1CNC(=O)C(=O)NCC1CCCN1S(=O)(=O)c1cccs1 (centres undefined)	x	-2	x	1	x	-7	3	1.5	6	x
CC(C)(C)c1ccc(C(=O)CCC(=O)OCC(=O)NCCc2ccc(S(N)(=O)=O)cc2)cc1	-2.3	x	-1	5	-3	-4	14	0.6	x	-1.2
O=C(C1CCCN(S(=O)(=O)c2ccc(Br)s2)C1)N1CCCCCC1 (centres undefined)	5.3	-14	1	-4	-16	x	x	x	5	1.6
CCc1nc(SCC(=O)Nc2ccc([N+](=O)[O-])cc2)n[nH]1	-3.1	-2	-1	-3	-2	4	9	4.7	-5	-1.0
O=C(c1ccc(-c2ccccc2Cl)o1)N1CCN(S(=O)(=O)c2cccs2)CC1	1.9	4	9	-8	-1	-1	0	-4.2	5	0.8
C=C(C)Cc1c(C)c(C#N)c2[nH]c3ccccc3n2c1=O	-3.2	-2	32	-13	6	-33	-59	-12	43	0.4
C/C(CC(=O)Nc1ccc2c(c1)OCCO2)=N\NC(=O)Cc1ccccc1	1.7	9	-1	3	2	1	2	-2.2	-9	-0.7
COc1ccc(OC)c2c(C)cc(N3CCCCCC3)nc12	-0.8	-19	-1	27	-62	0	-11	-12	29	1.2
Cc1cccc(C)c1NC(=S)N(C)CCc1ccccn1	2.1	11	1	3	-5	x	x	x	-5	3.0
Nc1c(-c2ccccc2)c(CSc2nc3ccccc3[nH]2)nn1-c1ccc(C(=O)O)cc1	-2.2	1	2	-15	23	1	-1	2.9	-4	-0.3
c1ccc(Cn2nnnc2-c2ccco2)cc1	1.1	4	0	-4	2	x	x	x	15	0.3
Cc1cccc(-c2noc(-c3ccc(F)cc3)n2)c1	-2.7	-16	6	4	-12	x	x	x	-13	0.0
COc1ccccc1N1CCN(S(=O)(=O)CCNC(=O)c2ccccc2Br)CC1	2.5	1	2	4	28	-3	-12	-0.1	-20	0.8
CC1CCN(c2oc(-c3ccc(F)cc3)nc2C#N)CC1	1.6	15	5	16	x	-24	-38	-10	1	0.0
Cc1cccc(N2CCN(C(=O)COc3cc4oc(=O)cc(C)c4cc3Cl)CC2)c1C	2.2	1	-1	9	0	15	11	0.1	11	1.2
OCC[C@H]1C[C@H](O)[C@@H](O)[C@]2(CCCCO2)O1	-3.1	-4	-9	3	-2	12	10	1.8	-6	0.3
Cc1ccc(OCC(=O)Nc2nc(-c3ccccn3)cs2)c(C)c1	-1.7	-8	4	6	-6	1	3	-1.5	12	-0.1
Cc1noc(C)c1CSc1nnc(-c2ccccc2F)n1CCc1ccccc1	5.8	-3	0	-4	-14	x	x	x	18	-1.0
NC(CC(=O)O)c1ccc(Br)cc1 (centres undefined)	7.1	3	-2	2	x	x	x	x	-18	-0.5
Cc1ccc(C)c(N(C)C(=O)c2coc(=O)c3ccccc23)c1	-1.6	-4	0	0	x	x	x	x	-8	0.4
Cc1ccccc1N1CC(C(=O)N2CCc3ccccc32)CC1=O (centres undefined)	4.4	12	x	-5	-7	0	4	0.5	-4	0.1

(list continues)
SMILES	LANA-H2A inh	Calb FLC	Beta apoptosis	Beta2AR agonist	ALR inh	rRNA inh HTS	rRNA inh HTS OD600	rRNA inh HTS RFP	T cruzi inh	Bfl-1 A1 inh
COc1ccccc1C(=O)Nc1ccnn1C1CCN(C(=O)c2ccoc2C)CC1	1.1	-6	-1	5	-2	14	14	4.5	4	1.2
Cc1cc(S(=O)(=O)NCC(C)C)ccc1OCC(=O)NCC1CCCO1 (centres undefined)	5.1	-6	x	-3	1	x	x	x	0	-0.3
COc1cc(OC)cc(C(=O)Nc2ccccc2C(=O)NC2CC2)c1	3.0	x	1	2	-1	4	4	2.1	x	-1.7
O=C1CN(c2ccc(Cl)cc2)C2(CCCCC2)S1	6.9	-1	-2	8	x	6	-3	-4.3	10	0.3
O=C(O)CNc1nc(-c2ccccc2)c2cc([N+](=O)[O-])ccc2n1	1.7	20	x	0	-75	x	x	x	-7	0.4
CN1CCN(C(=O)c2ccc3c(c2)NC(=O)C(N2CCOCC2)S3)CC1 (centres undefined)	-4.9	0	-6	-2	-4	x	x	x	0	0.4
CCCOc1ccc(C2/C(=C(\O)c3c(C)[nH]c(C(=O)OC)c3C)C(=O)C(=O)N2CCN(C)C)cc1 (centres undefined)	0.3	-19	-3	-8	-6	x	x	x	-15	0.4
O=C1C2C3c4ccccc4C(c4ccccc43)C2C(=O)N1c1cccc2cccnc12 (centres undefined)	-0.3	-4	-4	1	-8	x	x	x	4	-0.5
COC(=O)c1nn(-c2ccc(C)cc2)c2nnc(Cc3ccccc3)c(=O)n12	-3.9	7	-8	2	-8	x	x	x	-4	0.3
CC(C)CCOc1ccc(C2CC(=O)N(C)C2=O)cc1 (centres undefined)	-1.8	-14	-2	-5	0	6	13	-0.4	3	-0.2
CC(Sc1nnc(-c2ccco2)n1C)C(=O)NC1CCCC1 (centres undefined)	0.1	x	0	-6	-1	x	x	x	x	1.3
CCOC(=O)CC(=O)CSc1nnc(Cn2c(=O)sc3ccccc32)n1C	3.2	-25	-7	-8	2	x	x	x	-1	0.3
O=S(=O)(c1cc(F)ccc1F)N1CCC2(CC1)OCCN2S(=O)(=O)c1ccccc1	1.2	-2	0	-3	-4	-7	-11	-0.3	14	0.4
Nc1[nH]nc2nc3ccccc3cc12	-3.9	-16	-5	3	61	-2	0	-4.2	-3	0.1
CC1(C)CC(=O)C=C(NC2CCCC(O)C2)C1 (centres undefined)	3.2	-10	5	1	-10	12	10	2.5	-24	-0.4
Cc1cc(C)c2c(n1)sc1c(-c3ccccc3)c(C#N)c(N)nc12	2.2	1	0	-21	-12	x	x	x	44	1.1
CCCCOc1ccc(/C(O)=C2/C(=O)C(=O)N(Cc3cccnc3)C2c2ccncc2)c(C)c1 (centres undefined)	x	-5	-1	6	x	x	x	x	-5	0.7
Cc1ccc(-c2nn(-c3cccc(F)c3)cc2CN(Cc2nccn2C)C(C)C)o1	0.9	-25	9	-17	x	-8	-8	6.5	41	0.4
CCC1(c2ccc(Cl)cc2)NC(=O)N(Cc2ccc(C(=O)OC)cc2)C1=O (centres undefined)	2.2	23	-1	-7	0	-38	-51	-3.2	4	0.0
